miR-21 reporter: raises the signal of a miR-21 reporter. HeLa miR-21 FLuc reporter, luciferase, 48 h. Potency, µM (series often up to 38.3 µM), for the others: at the highest dose reporter change, positive = more light. 340,000 tested, under 10 active. AID 2288; active = well fitted rising curve with a large enough effect; inconclusive = small, poorly fitted or top-dose-only effect; inactive = no such curve, though single readings can be large or run the other way;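 note: % of control where 0% means no effect; miR-21 action dims this reporter so a rising signal means less miR-21 action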
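HeLa cells stably expressing CMV-driven firefly luciferase with a downstream miR-21 binding sequence, endogenously expressing miR-21, were treated with titrations (up to about 40uM final) for 48 hours at 37 degree Celsius. Luciferase luminescence was read after lysis.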
The depositor's hits bear a star; ? = inconclusive; [ ] = dose if it differs, or a comment. This is a subset; the hit share may differ from the screen's.

SMILES | miR-21 reporter
CCOC(=O)c1c(NC(=O)c2ccc(OCC)c(Br)c2)sc2c1CCCC2 | 3.6%
Cc1ccccc1-c1noc(-c2ccc(N3CCOCC3)c([N+](=O)[O-])c2)n1 | -27.7%
COc1ccc(OC)c([C@@H]2Nc3ccc(C(=O)O)cc3[C@@H]3C=CC[C@@H]32)c1 | 0.3%
COc1ccc(C(=O)Nc2ccc(N(C)Cc3ccccc3)c(C(=O)O)c2)cc1 | -10.1%
CCOc1ccccc1NC(=O)c1c(NCc2sccc2C)sc2c1CCC(C)C2 (stereo not given) | 5.8%
Cc1ccc(CCNC(=O)CCCc2nnc3n(C)c(=O)c4sccc4n23)cc1 | 9.2%
CC(C)(C)OC(=O)N1CCC(c2c(C(=O)N3CCC(c4ccccc4)C3)cnn2-c2ccc(Cl)cc2)CC1 (stereo not given) | 25.6%
COc1ccc2[nH]cc(CCNC(=O)Nc3ccc(F)cc3)c2c1 | -1.2%
Cn1c(=O)c2c(nc(SCC(=O)Nc3ccc(F)cc3)n2Cc2ccc(Cl)cc2)n(C)c1=O | 2.9%
COc1cc(NS(=O)(=O)c2cccs2)cc(OC)c1 | 0.1%

6 of the entries above in order of their number in miR-21 reporter, falling.
Molecule,miR-21 reporter
CC(C)(C)OC(=O)N1CCC(c2c(C(=O)N3CCC(c4ccccc4)C3)cnn2-c2ccc(Cl)cc2)CC1 (stereo not given),25.6%
CCOC(=O)c1c(NC(=O)c2ccc(OCC)c(Br)c2)sc2c1CCCC2,3.6%
COc1ccc(OC)c([C@@H]2Nc3ccc(C(=O)O)cc3[C@@H]3C=CC[C@@H]32)c1,0.3%
COc1cc(NS(=O)(=O)c2cccs2)cc(OC)c1,0.1%
COc1ccc2[nH]cc(CCNC(=O)Nc3ccc(F)cc3)c2c1,-1.2%
Cc1ccccc1-c1noc(-c2ccc(N3CCOCC3)c([N+](=O)[O-])c2)n1,-27.7%

(more compounds)
SMILES | miR-21 reporter
CCOc1ccccc1CNC(=O)CN1C(=O)c2cccnc2Oc2ccc(Cl)cc21 | 6.9%
Cc1cn2c(=O)cc(COC(=O)c3cccc(NC(=O)c4ccccc4C)c3)nc2s1 | -3.5%
COc1ccc(-c2cc(C(F)(F)F)n3nc(C(=O)Nc4cccc(Cl)c4C)cc3n2)cc1 | -1.1%
COc1ccc(CCN2C(=O)c3[nH]nc(-c4ccccc4O)c3C2c2cccc(OC)c2)cc1 (stereo not given) | ?
Cn1nnc2c(NCc3ccccc3Cl)ncnc21 | -4.0%
CCC(=O)N1CCc2cc(CNS(=O)(=O)c3ccc(C(C)C)cc3)ccc21 | -8.5%
O=C(NCC(c1cccnc1)N1CCc2ccccc21)c1ccc(F)cc1 (stereo not given) | 0.9%
CC(C)Cc1nn2c(=O)cc(COC(=O)c3cccc(NC(=O)CCc4ccccc4)c3)nc2s1 | 4.3%
CC(C)c1ccc(C2CC(=O)Nc3cc4c(cc32)OCCO4)cc1 (stereo not given) | 22.9%
O=C(Nc1ccc2oc(-c3cc(Br)ccc3Cl)nc2c1)c1cc2ccccc2o1 | -9.3%
COc1cccc(-c2nnc(-c3ccccc3NC(=O)c3ccc(F)cc3F)o2)c1 | 1.3%
Cc1ccc(-c2nnc(Nc3ccc(O)cc3)c3ccccc23)cc1S(=O)(=O)N1CCN(C)CC1 | 9.6%
CNS(=O)(=O)c1cn(CC(=O)N2CCN(c3ccccc3F)CC2)cc1S(=O)(=O)NC | 2.3%
COc1ccc(CCNC(=O)CCCCn2c(=O)c3ccccc3n(Cc3ccc(Cl)cc3)c2=O)cc1OC | 10.1%
Cc1oc(-c2cccc(Cl)c2)nc1CN1CCCC(C(=O)NCCc2ccc(Cl)cc2)C1 (stereo not given) | -0.1%
CCCCC[C@]12Cc3cc(OC)c(OC)cc3[C@H](O1)c1c(cc(C)oc1=O)O2 | -1.2%[7.66 µM]
COc1ccc(S(=O)(=O)NCc2cccn2Cc2cc(C)ccc2C)cc1OC | 6.7%
CCCNC(=O)c1c(NC(=O)c2ccccc2F)sc2c1CCCCC2 | 4.2%
CCc1ccc2occ(CC(=O)Nc3c(C(=O)Nc4ccc(C)cc4)oc4ccccc34)c2c1 | -18.9%
CCc1ccc(-n2c(=O)c3c4c(sc3n(CC(=O)c3ccc(Cl)cc3)c2=O)CCC4)cc1 | -5.2%
CCOc1ccc(C(=O)NCc2ccc3c(c2)CCN3C(=O)c2ccc(Cl)cc2)cc1 | -6.4%
CCc1ccc(NC(=O)CSc2ccc3nc(-c4ccc(OC)cc4)cn3n2)cc1 | -61.9%
Cc1ccccc1Cn1c(SCc2ccc(C(=O)NC3CCCC3)cc2)nc2ccncc21 | 1.6%
COc1ccc(Cl)cc1NC(=O)C1CCN(c2nnc(C)c3c(C)n(-c4ccccc4)nc23)CC1 | 0.5%
Cc1ccc(CN2CCCn3nc(C(=O)NCc4ccccc4Cl)cc3C2=O)cc1 | ?
CCc1ccc(S(=O)(=O)c2cn(CC(=O)Nc3cccc(C)c3)c3ccc(Cl)cc3c2=O)cc1 | 13.2%
CC1=C(c2ccc(F)cc2)S(=O)(=O)N=C1N1CCC(C(=O)NCCc2ccccc2C)CC1 | 0.6%
CCOc1cc(C2c3c(oc4ccccc4c3=O)C(=O)N2Cc2ccc(OC)cc2)ccc1O (stereo not given) | -4.8%
COc1ccc(Nc2oc(-c3ccc(COc4cccc(C)c4)o3)nc2C#N)cc1 | -4.2%
Cc1ccc(NC(=O)c2c(C)oc3ccc(O)c(CN4CCOCC4)c23)c(C)c1 | -10.9%
CCc1ccccc1NC(=O)c1nnn(-c2ccc(F)cc2)c1C | -47.1%
Cc1ccc(Cl)cc1-n1ncc2c(Nc3ccc4c(c3)OCCO4)ncnc21 | -37.8%
CCc1ccccc1N1C(=O)N(Cc2cc(=O)n3ccccc3n2)c2ccccc2S1(=O)=O | 19.9%
Cc1ccccc1NC(=O)Cn1c(=O)n(CCCC(=O)NCc2ccc3c(c2)OCO3)c(=O)c2ccccc21 | 2.3%
Cc1ccc(NC(=O)Cn2nnc3sc4c(c3c2=O)CCC(C)C4)cc1 (stereo not given) | -0.4%
Cc1cccc(OCC(=O)Nc2nonc2-c2ccc(Br)cc2)c1C | 0.6%
COc1cccc(C(c2sc3nc(-c4ccco4)nn3c2O)N2CCOCC2)c1 (stereo not given) | -3.8%
CCc1ccc(NC(=O)c2ccc(F)c(S(=O)(=O)NCCc3ccc(OC)c(OC)c3)c2)cc1 | 27.3%
CN1c2cc(Cl)ccc2-c2nc(SCC(=O)Nc3ccc(F)cc3F)ncc2S1(=O)=O | 3.1%
COc1cc(NC(=O)Nc2c[nH]c(=O)[nH]c2=O)cc(OC)c1OC | -1.9%

4 records picked at random from the list so far, as already listed:
SMILES | miR-21 reporter
COc1ccc(-c2cc(C(F)(F)F)n3nc(C(=O)Nc4cccc(Cl)c4C)cc3n2)cc1 | -1.1%
CCC(=O)N1CCc2cc(CNS(=O)(=O)c3ccc(C(C)C)cc3)ccc21 | -8.5%
CCOC(=O)c1c(NC(=O)c2ccc(OCC)c(Br)c2)sc2c1CCCC2 | 3.6%
COc1ccc(CCN2C(=O)c3[nH]nc(-c4ccccc4O)c3C2c2cccc(OC)c2)cc1 (stereo not given) | ?

Remaining list, next part.
SMILES | miR-21 reporter
CCc1nc2nc(C)c(NS(=O)(=O)c3ccc(C)cc3)c(=O)n2[nH]1 | 1.5%
CCCNC(=O)Nc1cc(C(=O)NCc2cccc(OCC)c2)ccc1N1CCCC1 | -6.0%
Cc1nc(N2CCOCC2)c2c(C(=O)N3CCN(c4cccc(C(F)(F)F)c4)CC3)c(C)oc2n1 | 1.3%
Cc1ccccc1C(=O)N1CCC(c2nc(-c3ccc(S(=O)(=O)N4CCCC4)cc3)no2)CC1 | 2.0%
Cc1nc(N2CCCC2)ncc1C(=O)Nc1ccc(F)cc1F | -22.8%
CCOc1ccc(N(CC)C(=O)C2CCN(S(=O)(=O)c3cccc4nonc34)CC2)cc1 | 0.6%
Cc1ccc(NC(=O)CSc2nnc(-c3cc4occc4n3C)n2-c2ccccc2C)c(Cl)c1 | 8.5%
Cc1oc2ncnc(N3CCCCC3)c2c1C(=O)N1CCN(c2cccc(Cl)c2)CC1 | 11.5%
CCOc1ccc(NC(=O)CCS(=O)(=O)c2ccc(Br)s2)cc1 | -1.0%
CN(C)c1ccc(NC(=O)Cn2cc(S(=O)(=O)Cc3ccccc3Cl)c3ccccc32)cc1 | 3.4%
Cn1c(SCc2ccc(C(F)(F)F)cc2)nc2c([nH]c3ccccc32)c1=O | -1.5%
COc1ccc(-c2cn3c(n2)sc2cc(C(=O)Nc4cc(OC)cc(OC)c4)ccc23)cc1 | -7.7%
O=C(CSc1nc2nccnc2c(=O)n1CCc1c[nH]c2ccccc12)Nc1ccccc1F | 11.4%
CC(C)CNC(=O)C1=CC(c2ccc3c(c2)OCO3)=NS(=O)(=O)N1C | -0.4%
COCCNC(=O)CCCn1c(SCC(=O)Nc2ccc(F)cc2)nc2c(sc3ccccc32)c1=O | 3.7%
Cc1cc(NC(=O)C(C)(C)C)cc(-c2nc3ncccc3o2)c1O | 5.8%
COc1cc(/C=C/c2nc(C#N)c(N3CCN(C)CC3)o2)cc(OC)c1OC | 1.7%
O=C(Cn1c(=O)ccc2cc(S(=O)(=O)N3CCCC3)ccc21)Nc1ccccc1 | 0.4%
CCCCN(CCCNC(=O)c1c(C)oc2nc[nH]c(=O)c12)Cc1ccccc1 | 3.0%
Cc1oc(-c2ccc(Cl)cc2)nc1CN1CCCC(C(=O)NCc2ccccc2)C1 (stereo not given) | 29.4%
CC1CCc2nc3ncn(Cc4cccc(F)c4)c(=O)c3cc2C1 (stereo not given) | -55.1%
Cc1cccc(-n2ncc3c(N4CCN(c5ccccc5)CC4)ncnc32)c1 | -0.9%
O=C(Nc1nnc(SCc2cc(=O)n3cc(Cl)ccc3n2)s1)c1cccc(F)c1 | -3.5%
CCOc1ccc(C(=O)NCC(c2ccc(Cl)cc2)N2CCCCC2)cc1 (stereo not given) | 8.7%
COc1ccccc1-c1nc2c(c(SCC(=O)Nc3c(C)cc(C)cc3C)n1)Cc1c(CO)cnc(C)c1O2 | 0.2%
COc1ccccc1-c1nnc(C2CCN(C(=O)c3ccccc3C)CC2)o1 | -6.1%
CCC1CN(C(=O)N2CCC(C(=O)NCc3ccccc3F)CC2)c2ccccc2O1 (stereo not given) | -2.1%
COc1ccc(CNC(=O)C2CCN(S(=O)(=O)c3ccc4c(c3)CCCN4C(C)=O)CC2)cc1 | -0.6%
CC(C)N(Cc1ccccc1)c1ncnc2c1nnn2C | -17.4%
CC(C)c1ccc(OCC(=O)N(Cc2ccc(N(C)C)cc2)C2CCS(=O)(=O)C2)cc1 (stereo not given) | -2.2%
COc1cc(Cl)c(NC(=O)CN(C)S(=O)(=O)c2ccc3c(c2)CCCC(=O)N3)c(OC)c1 | 9.4%
CCc1ccc(N2CC(c3nnc(NC(=O)c4ccco4)s3)CC2=O)cc1 (stereo not given) | -9.0%
CC(C)c1nn2c(=O)cc(COC(=O)c3ccccc3NC(=O)c3cccs3)nc2s1 | -0.9%
CCCCN(C)CC(O)Cn1cc(/C=C/C(=O)c2ccc(OCC)cc2)c2ccccc21 (stereo not given) | ?
COc1ccc(NC(=O)c2oc3ccccc3c2NC(=O)c2cc(=O)c3c(C)cc(C)cc3o2)cc1 | -10.8%
COc1ccccc1N1CCN(c2ncnc3onc(C)c23)CC1 | 2.5%
O=C(Cn1ncc2c3ccccc3n(Cc3ccc(Cl)cc3)c2c1=O)NCCCc1ccccc1 | -0.2%
COc1ccccc1CNC(=O)c1cc2cc3ccc(Cl)cc3nc2o1 | -11.7%
CCCOc1ccc(C(=O)Nc2cc(-c3nc4cc(C)cc(C)c4o3)ccc2C)cc1 | 0.1%
O=C1c2ccccc2C(=O)N1CCCC[C@]12Cc3ccccc3C(O1)c1c(c3ccccc3oc1=O)O2 | -2.3%[7.66 µM]
COc1ccc(-n2ccnc2SCC(=O)Nc2nnc(C)s2)cc1 | -0.2%
COc1ccc(CCC(=O)NC2CC(=O)N(c3ccc(F)cc3)C2)cc1 (stereo not given) | 0.5%
Cc1cc(C)cc(-n2nnc(-c3nc(-c4ccc5c(c4)OCO5)no3)c2C)c1 | -0.8%
CCc1ccccc1NC(=O)N1CC(CC)Oc2ccc(Cl)cc21 (stereo not given) | -40.9%
COc1cc(Cl)c(C)cc1NC(=O)Cn1ncc2c3ccccc3n(Cc3ccccc3)c2c1=O | -2.3%
COc1ccc(CNC(=O)CCc2c(C)c3cc4c(C)coc4cc3oc2=O)cc1 | -14.6%
CCCN(CCC)c1nn2c(=O)c(C(=O)NCc3cc(Br)ccc3OC)cnc2s1 | -2.8%
CSc1ccc(CCNC(=O)c2c(C)nn(-c3ccc(F)cc3)c2-n2cccc2)cc1 | ?
Cc1nc(-c2ccc(S(=O)(=O)Nc3ccc(C)c(N(C)C)c3)cc2)co1 | 14.4%
Cc1c(-c2nnc(SCC(=O)Nc3ccccc3F)o2)nnn1-c1ccc(F)cc1 | -62.9%
Additional compounds follow.
SMILES | miR-21 reporter
CCc1nnc(NC(=O)c2nc(SCc3ccccc3C)ncc2Cl)s1 | -0.4%
CCOC(=O)c1ccc(NC(=O)c2cc3cc(C)ccc3n2C)cc1 | -1.8%
Cc1ccc(CSc2nc3ccncc3n2Cc2nc(-c3ccccc3C)oc2C)cc1 | -6.9%
CCOC(=O)c1sc(NC(=O)c2cc3nc(-c4ccc(Br)cc4)cc(C(F)(F)F)n3n2)c(C(=O)OCC)c1C | -0.4%
Cc1ccccc1NC(=O)c1c(C)oc2ccc(O)c(CN3CCOCC3)c12 | 8.0%
COc1cc(NC(=O)c2c(-c3ccc(C)cc3)nnc3ccccc23)cc(OC)c1OC | -29.1%
CCc1ccc(NC(=O)C2CCCN2S(=O)(=O)c2ccc3nc(-c4ccccc4)[nH]c3c2)cc1 (stereo not given) | 0.1%

Source: PubChem
